NPYLR7 ag = activates Aedes aegypti NPYLR7 receptor | HEK293T NPYLR7/Galpha15, GCaMP6s calcium fluorescence | activation, % at 10 µM | 270,000 compounds, 0.15% hits | AID 1259423; in the data active means activation above about 40%;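 further: 0% = vehicle and 100% = reference agonist at the receptor; some compounds past the cut are filed as inactive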
NPYLR7 ag max-min = second read-out of NPYLR7 ag, no call of its own (marks repeat the call); activation, %; measured here: Max-Min RFU normalised activation; some inactives read as strong as hits;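 span of the calcium signal over five minutes; 0% = vehicle and 100% = native peptide agonist; compound fluorescence can raise it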
An asterisk follows results filed as active; & = joins results of further samples. The list is partial. The share of hits here may be higher or lower than overall.

Values in the order: NPYLR7 ag max-min, NPYLR7 ag
1. Cc1ccc(C2CC(c3ccccc3F)=NN2C(=O)CN2CCc3ccccc3C2)c(C)c1 (stereo not given)
    22, 19
2. Cc1cccc(-n2c(C)nn(CN3CCN(c4ccc(F)cc4)CC3)c2=S)c1
    -10, -10
3. CCC(=O)NC(=S)c1c(C)nc2sccn12
    4, 6
4. Cc1cc(C)n(-c2nc(C)c(C)c(=O)n2CC(=O)Nc2ccc3c(c2)OCO3)n1
    5, 0
5. CCC1CC(CSc2ncn[nH]2)OC1=O (stereo not given)
    6, 1
6. CNc1nnc(SCc2cc(=O)n3c(n2)sc2ccccc23)s1
    -2, 0
7. NC(=O)c1ccc(CNC(=O)c2ccc(Cl)c(I)c2)cc1
    1, 2
8. CC1CC(N2CCCC(c3cc(C(F)(F)F)n[nH]3)C2)C(=O)O1 (stereo not given)
    4, 8
9. CC(C(=O)N1CCNC1=O)N1CCCC1c1cccs1 (stereo not given)
    8, 5
10. CC1(C(=O)NS(=O)(=O)c2ccccc2C(F)(F)F)CCN1C(=O)C1CC1 (stereo not given)
    -2, -3
11. N#CC(=Cc1ccc(F)cc1)c1nc(C2CC2)cs1
    0, 1
12. O=C(NCCN1CCOCC1)c1ccc(CSc2nc(-c3ccccc3)cc(N3CCN(c4ccccc4Cl)CC3)n2)cc1
    16, 12
13. O=C(NC(C(=O)Nc1ccccc1)C1CCN(C(=O)Cc2ccccc2)CC1)c1ccc(F)cc1 (stereo not given)
    2, 0
14. CC(=O)N(Cc1ccc(NC(=O)CCOC(C)C)cc1)C(C)C
    -1, 0
15. O=C(CCC1CCCN(C(=O)CC2=CCCCC2)C1)N1CCN(Cc2ccccc2)CC1 (stereo not given)
    -5, 1
16. CCOC(=O)CC1=NN(c2ccccc2)C(=O)/C1=C\c1ccc2c(c1)OCO2
    13, 15
17. COc1ncccc1-c1cc(C(=O)NC2CC2)ccn1
    18, 32
18. CN(CCC(=O)N(C)C1Cc2ccccc2C1)C1CCS(=O)(=O)C1 (stereo not given)
    2, 3
19. O=C(NCc1ccco1)[C@@]1(OCc2ccccc2F)CC(OCc2ccccc2F)[C@H](O)[C@H](O)C1 (stereo not given in full)
    -2, -3
20. Cn1c(CCNC(=O)C2CC23CCN(CC2=CC[C@H]4C[C@@H]2C4(C)C)CC3)nc2ccccc21 (stereo not given in full)
    10, 20
21. CN(Cc1cnn(-c2ccc(F)cc2)c1)Cc1cccc2nccnc12
    7, 10
22. COc1ccccc1OCC(=O)NCC1CCCN(C(=O)CC2=CCCCC2)C1 (stereo not given)
    6, 18
23. CCn1cc(C(=O)Nc2ccc3c(c2)OCCO3)c2nn(-c3ccccc3)c(=O)c-2c1
    6, 10
24. Cc1ccc(Cc2nc(N3CCN(S(=O)(=O)c4ccc([N+](=O)[O-])cc4)CC3)c3c(-c4cccnc4)noc3n2)cc1
    24, 19
25. O=C(Cc1cccs1)NCCN=C1NS(=O)(=O)c2ccccc21
    -4, 0
26. CCc1oc(C(=O)N2CCCC3(CNC(=O)O3)C2)cc1CN(CC)CC (stereo not given)
    2, 3
27. CC1c2ccsc2CCN1C(=O)/C=C/c1cc(Cl)c2c(c1)OCCCO2 (stereo not given)
    0, 2
28. C=CCOCC(O)CN(Cc1c(-c2ccccc2)noc1N1CCC(C)CC1)C1CC1 (stereo not given)
    13, 10
29. CCOC(=O)N1CCC(N2CCC3(CCCN(Cc4cccc(C)c4)C3)C2)CC1 (stereo not given)
    6, 6
30. O=C(/C=C/c1ccccc1Cl)N1CCC(Cc2ccc(C(F)(F)F)cc2)CC1
    8, 2

At a glance, some entries already given:
Values in the order: NPYLR7 ag max-min, NPYLR7 ag
16. CCOC(=O)CC1=NN(c2ccccc2)C(=O)/C1=C\c1ccc2c(c1)OCO2
    13, 15
17. COc1ncccc1-c1cc(C(=O)NC2CC2)ccn1
    18, 32
18. CN(CCC(=O)N(C)C1Cc2ccccc2C1)C1CCS(=O)(=O)C1 (stereo not given)
    2, 3
19. O=C(NCc1ccco1)[C@@]1(OCc2ccccc2F)CC(OCc2ccccc2F)[C@H](O)[C@H](O)C1 (stereo not given in full)
    -2, -3

Next structures:
Values in the order: NPYLR7 ag max-min, NPYLR7 ag
31. CCc1ccc2c(c1)NC(=O)C2(C)Cc1cccc(F)c1 (stereo not given)
    -1, 0
32. Cc1cc(C(C)NC(=O)N(C)C(C)C2CC2)c(C)s1 (stereo not given)
    -3&6, 2&9
33. Cc1ccc(C)c(S(=O)(=O)N2CCN(c3ccc(-n4cccn4)nn3)CC2)c1
    -12, -6
34. CCOc1ccc(S(=O)(=O)N2CCOCC2)cc1NC(=O)CCC1Cc2ccccc2NC1=O (stereo not given)
    9, 18
35. Cc1cccnc1C(NCC(=O)NC1CCCCCCC1)C1CC1 (stereo not given)
    9, 16
36. CCOC(=O)N1CCC(Nc2cncc(Br)c2)CC1
    0, 2
37. Cc1ccccc1/C=C1\Oc2c(ccc3c2CN(C2CCS(=O)(=O)C2)CO3)C1=O (stereo not given)
    34, 42
38. COCCN(CCOC)C(=S)Nc1cccc(C(F)(F)F)c1
    -10, -4
39. Cc1ccc(C2(CN3CCOc4ccccc4C3)CCNCC2)nc1
    3, 6
40. CC(NS(=O)(=O)Cc1ccc(F)cc1)c1cccc(OC(F)F)c1 (stereo not given)
    -3, -1
41. Cc1cccc(-n2nnnc2SCC(=O)N2CCN(C(=O)c3cccs3)CC2)c1
    11, 7
42. Cc1ccc(C(=O)N2CCC3(CC2)SCC(=O)N3Cc2ccccc2)cc1
    1, 3
43. COc1ccc(Cl)cc1CN(C)C(=O)CCC(=O)NC1CCCC1
    5, 6
44. Cc1ccc([N+](=O)[O-])cc1N1C(=O)C=CC1=O
    -2, -2
45. COc1cccc(-c2cc(C(=O)NCc3cccc(C(F)(F)F)c3)n(-c3ccccc3)n2)c1
    24, 10
46. COc1ccc(Nc2ccc(Nc3ccc([N+](=O)[O-])cc3[N+](=O)[O-])cc2)cc1
    -2, -1
47. O=C(Oc1ccc2ccc(=O)oc2c1)c1cccc([N+](=O)[O-])c1
    -3, -1
48. CCOC(=O)Cn1c(C)cn2c3c(=O)n(CC)c(=O)n(C)c3nc12
    24, -1
49. COCC(=O)Nc1ccc(N2CCN(C(=O)Cc3cccs3)CC2)nc1
    -12, 0
50. Cc1cccc(-n2ccnc2S(=O)(=O)C(C)C(=O)N(C(C)C)C(C)C)c1 (stereo not given)
    8, 15
51. Cc1n[nH]c(C)c1CNC(=O)c1cc(COc2c(F)cccc2F)on1
    2, 3
52. CC(=O)NC(CCC(N)=O)C(=O)NC1CCC(C)(C)c2ccccc21 (stereo not given)
    8, 1
53. O=C(Cc1ccc2c(c1)CCC2)NCC1CCN(c2ccccc2)C1 (stereo not given)
    46*, 49*
54. COc1ccc(NC(=O)C(C2CCCC2)N2CCN(C(=O)c3cccc(Br)c3)CC2)cc1 (stereo not given)
    3, -2
55. O=C(Nc1cccc(-c2cccc(-c3ccc(F)cc3)n2)c1)c1ccc(F)c(Cl)c1
    18, 16
56. COc1ccccc1/C=C/CN1CCN(CC(C)(C)C)C(CCO)C1 (stereo not given)
    9, 17
57. CC(C)(C)CN1CC(O)CN(C(=O)c2ccc(Cl)cc2)CC1=O (stereo not given)
    13, 4
58. CCCc1ccccc1N1C(=O)CSC1c1cccc(NC(=O)c2cccc(Br)c2)c1 (stereo not given)
    15, 12
59. COC(=O)c1sc(NC(=O)CCl)c(C(=O)OC)c1C
    -9, -8
60. O=C(NCC1CCN(Cc2ccc3nonc3c2)C1)NC1CCCC1 (stereo not given)
    1, 1
61. CCOC(=O)c1sc(NC(=O)C2CC2)c(C(=O)OCC)c1C
    12, 7
62. CC(C)CC(=O)C(=O)N1CCCC(C(=O)Nc2cccc(-c3cc4ccccc4[nH]3)c2)C1 (stereo not given)
    -2, 2
63. Cc1nccn1-c1cc(NCCNC(=O)c2cc3ccccc3oc2=O)ncn1
    -23, -18
64. O=c1[nH]c(CN(Cc2ccccc2F)C2CC2)nc2ccsc12
    -15, -12
65. O=C(NC1CCCc2nc(-c3ccccc3)ncc21)c1ccoc1 (stereo not given)
    -4, -1
66. C/C(=N\Nc1ccc([N+](=O)[O-])cc1[N+](=O)[O-])c1cccc2ccccc12
    -2, 1
67. COc1cccc(/C=N\NC(=O)CSc2nnc(-c3ccccc3)n2-c2ccccc2)c1O
    -11, -3
68. CCc1noc(C)c1C(=O)OC(C)C(=O)N1CC(=O)Nc2ccccc21 (stereo not given)
    0, 3
69. CC(C(=O)NCC1CCC(C(N)=O)O1)c1ccc(Cl)s1 (stereo not given)
    -1, -1
70. COCCn1c(SCC(=O)NC(=O)NC(C)C)nc2sc3c(c2c1=O)CCCC3
    12, 5
71. CC1(C)CC(=O)C2=C(C1)OC(=N)C(C#N)C2c1ccc(O)c(O)c1 (stereo not given)
    2, 9
72. Cc1ccnc(NCCNC(=O)c2cc3cc(F)ccc3[nH]2)c1
    -3, -3
73. O=C(Cc1ccccc1Br)NCc1cn2c(n1)CCCC2
    5, 15
74. CCc1nc(CN2CCCC(N(C)c3ccc4nnnn4n3)C2)no1 (stereo not given)
    4, 6
75. O=C(Cn1c(CC2CCS(=O)(=O)C2)nc2ccccc21)Nc1cccc(F)c1 (stereo not given)
    3, 3
76. Cc1cc(=O)[nH]c(-n2nc(-c3cccs3)cc2NC(=O)c2cc3ccccc3o2)n1
    1, 0
77. CCn1ncc(NC(=O)Cn2ccc(-c3cc4ccccc4o3)n2)n1
    6, 11
78. Cc1nn(C(C)(C)C)c2nc(C(C)C)cc(C(=O)NCC3CC3)c12
    0&3, 3&5
79. COc1cccc(C(CN2CCN(C(=O)c3ccc(F)c(F)c3)CC2)OCc2ccc(C#N)cc2)c1 (stereo not given)
    3, -4
80. CCOC(=O)c1sc2nccc3c2c1N=CN3c1ccccc1
    -1, 2
81. CCCNC(=O)NC(=O)CN(Cc1ccc(C(F)(F)F)cc1)C1CC1
    -4, -7
82. N#Cc1c(N)nc(SCC(=O)OCc2ccccc2)c(C#N)c1-c1ccc(O)cc1
    -8, -2
83. CCNC(=O)c1ccc(N2CCN(Cc3ccc(OC)c(C)c3C)CC2)nc1
    3, 16
84. C=CCN1C(=O)C2(SC(NC(C)=O)=NN2C(C)=O)c2cc(Cl)ccc21 (stereo not given)
    7, 1
85. CC1Cc2cc(-c3cc(CNC(=O)CSc4nc5ccccc5o4)no3)ccc2O1 (stereo not given)
    -3, -1
86. C=CCN(CC(=O)N1CCc2sccc2C1COc1ccc(C)cc1C)CC(O)Cc1ccccc1 (stereo not given)
    6, 6
87. CCC(NCc1cnc(SC)nc1N1CCN(c2ccc(OC)cc2)CC1)c1ccccc1 (stereo not given)
    -2, 2
88. C#CCNC(=O)CC[C@@H]1CNC(=O)[C@@H]2C[C@H](NC(=S)Nc3ccc(N4CCOCC4)nc3)CN12
    -15, -8
89. CCCS(=O)(=O)NCCNc1cc(-n2nc(C)cc2C)ncn1
    -12, -8
90. c1cncc(CN2CCN(c3cc(-c4ccc5ccccc5c4)nc4ccnn34)CC2)c1
    -12, -6

Carrying on:
Values in the order: NPYLR7 ag max-min, NPYLR7 ag
91. Cn1nc(CO)c2c1CCN(C(=O)c1cccc(CC3CCNCC3)c1)C2
    5, 0
92. COc1ccc(-c2cc(COC(=O)Cc3ccc(F)cc3)no2)cc1
    -1, 0
93. Cc1cc(NC(=O)c2ccc(C)c(Cl)c2)c(C)cn1
    -21, -21
94. COc1ccccc1C(NC(=O)c1oc2ccccc2c1C)c1nccn1C (stereo not given)
    2, 6
95. COc1cccc2cc(C(=O)NC(C)=O)c(=Nc3ccccc3F)oc12
    -22, -12
96. O=C1C2C(C(=O)N1c1cccc3ccccc13)C1C=CC2C12CC2 (stereo not given)
    6, 7
97. Cc1ccccc1CC(=O)NCC(C)(C)N1CC(C)OC(C)C1 (stereo not given)
    3, 3
98. CCCCN(C(=O)C1CCC1)c1c(N)n(CC(C)C)c(=O)[nH]c1=O
    10, 10
99. C=C(C)Cn1c(C)cn2c3c(=O)n(C)c(=O)n(C)c3nc12
    10, 1
100. O=C(c1cn(Cc2cccc3ccccc23)nn1)N1CCN(c2nc3ccccc3o2)CC1
    5, 12
101. Cc1nc2c(c(N3CCOc4ccc(Cl)cc4C3)n1)CNC2
    0, 2
102. O=C(CN1C(=O)NC2(CCCC2)C1=O)c1ccc(Cl)s1
    -5, -4
103. Cn1cc(CNC(=O)C(C)(C)Oc2cccc(Cl)c2)cn1
    3, 4
104. CCc1ccccc1N1CCN(C(=O)CC(=O)Nc2ccccc2C)CC1
    3, 5
105. CC1=CC2CC1C1C(=O)N(C(C)C(=O)N3c4ccccc4CC3C)C(=O)C21 (stereo not given)
    -2, 0
106. Cc1cc(N(C)CCO)nc(-c2cccnc2)n1
    15, 26
107. COCCN(CC(=O)N(Cc1ccc2c(c1)OCO2)Cc1ccc(C)o1)C(=O)Nc1ccc(C(C)C)cc1
    7, -1

Molecules from the list above that have a CF3 group (6):
Values in the order: NPYLR7 ag max-min, NPYLR7 ag
8. CC1CC(N2CCCC(c3cc(C(F)(F)F)n[nH]3)C2)C(=O)O1 (stereo not given)
    4, 8
10. CC1(C(=O)NS(=O)(=O)c2ccccc2C(F)(F)F)CCN1C(=O)C1CC1 (stereo not given)
    -2, -3
30. O=C(/C=C/c1ccccc1Cl)N1CCC(Cc2ccc(C(F)(F)F)cc2)CC1
    8, 2
38. COCCN(CCOC)C(=S)Nc1cccc(C(F)(F)F)c1
    -10, -4
45. COc1cccc(-c2cc(C(=O)NCc3cccc(C(F)(F)F)c3)n(-c3ccccc3)n2)c1
    24, 10
81. CCCNC(=O)NC(=O)CN(Cc1ccc(C(F)(F)F)cc1)C1CC1
    -4, -7

Screens deposited in PubChem by Fisher Drug Discovery Resource Center.
